FGF22 binding: binders of recombinant human FGF22 by thermal shift; AID 651658; 340,000 tested, 1.5% active; calls only at 9.99 µM; Q9HCT0; SYPRO orange fluorescence; percent of sucrose octasulfate shift, DMSO zero;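 active = melting point raised past a set limit in the mean and every replicate; three in four hits are not shown here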
Target sequence (Q9HCT0 whole entry, looked up): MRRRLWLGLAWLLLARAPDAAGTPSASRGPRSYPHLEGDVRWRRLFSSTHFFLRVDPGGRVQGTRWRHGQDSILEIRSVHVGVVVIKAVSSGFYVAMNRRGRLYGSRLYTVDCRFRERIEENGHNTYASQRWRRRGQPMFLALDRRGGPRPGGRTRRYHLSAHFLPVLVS
ALR H2O2 inh: blocks human ALR sulfhydryl oxidase activity | purified ALR, DTT oxidation, H2O2 HRP-luminol luminescence | inhibition, % (concentration not given with the values) | 290,000 tested, 3.8% active | AID 485317;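 active = mean and each replicate at 75% or more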;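 also: stock transfer was 7.5 nL into about 7.5 µL; 0% = neutral wells and 100% = wells with inactivated enzyme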
Target sequence (P55789 whole entry, looked up): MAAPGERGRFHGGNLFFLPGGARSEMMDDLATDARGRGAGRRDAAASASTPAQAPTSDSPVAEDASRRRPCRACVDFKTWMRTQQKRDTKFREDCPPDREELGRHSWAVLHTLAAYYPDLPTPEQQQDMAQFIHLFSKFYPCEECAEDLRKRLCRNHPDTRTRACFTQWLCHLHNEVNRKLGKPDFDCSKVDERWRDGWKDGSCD
UCH37 DUB inh: blocks the human deubiquitinase UCH37 | Q9Y5K5 | inhibition, % (concentration not given with the values) | 330,000 tested, 0.33% active | purified proteasome/UCH37, Ub-AMC cleavage fluorescence;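 active = mean of two replicates above 20%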;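 also: 0% = compound-free wells with enzyme and 100% = wells lacking proteasome; stock transfer was 100 nL into about 20 µL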
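Material: human UCH37 enzyme supplied as purified proteasome complex. Measure: % inhibition of Ub-AMC cleavage fluorescence. Medium: pH 7.4 Tris-HCl (50 mM) with ovalbumin, ATP-MgCl2, DTT. Times: 30 min preincubation with enzyme, 25 min cleavage at room temperature. Detection: AMC fluorescence intensity at 355/460 nm.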
Beta2AR agonist: activates human beta-2 adrenergic receptor causing internalization; response, % (test concentration not listed); Am2.2-beta2AR cells, FAP receptor internalization, flow cytometry; reference of the scale not given here; P07550; 340,000 tested, 0.43% active;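 active = response above a set limit, near 3 SD of response in nonfluorescent compounds, cut at about 42% in these data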;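 also: stock transfer was 100 nL into about 11 µL; a reference agonist was the positive control; negative values mostly stem from fluorescent compounds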
Target sequence (P07550 whole entry, looked up): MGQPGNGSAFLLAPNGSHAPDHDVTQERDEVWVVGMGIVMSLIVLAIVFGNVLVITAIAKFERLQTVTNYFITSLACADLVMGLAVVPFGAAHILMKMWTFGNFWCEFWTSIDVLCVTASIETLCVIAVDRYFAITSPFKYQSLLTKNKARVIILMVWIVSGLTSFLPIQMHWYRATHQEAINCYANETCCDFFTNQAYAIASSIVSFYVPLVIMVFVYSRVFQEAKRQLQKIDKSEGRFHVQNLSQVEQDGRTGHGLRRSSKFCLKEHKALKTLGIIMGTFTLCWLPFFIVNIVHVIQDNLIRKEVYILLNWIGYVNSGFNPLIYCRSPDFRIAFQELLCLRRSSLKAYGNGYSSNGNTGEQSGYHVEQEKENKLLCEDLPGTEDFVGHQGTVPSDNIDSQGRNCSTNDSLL
Ecoli rRNA inh: inhibitors of bacterial rRNA selective over humanized ribosomes; E. coli WT GFP vs humanized-ribosome RFP mutants, fluorescence, 24 h; active compounds read low; DMSO median 0, no signal -100; GFP signal change (wild-type ribosome), % (no concentration beside the values); 350,000 tested, 1.6% active; AID 720706;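 active = significant combined selectivity score with lowered wild-type GFP, culture density cut under 30%, mutant RFP and density less affected; inactive = any of these conditions unmet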; also: one replicate is shown; some compounds called inactive have numbers as strong as hits
E coli growth: E. coli growth inhibition; AID 1053175; OD600 absorbance (concentration not given with the values); 330,000 tested, 0.21% active; Escherichia coli growth, OD600, 23 h; active compounds read low;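 active = OD600 absorbance below the run mean of sample wells minus 3.6 SD, in any replicate, cut at about 0.56 in these data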;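 also: stock transfer was 300 nL into about 60 µL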
HNF4A DNA FP: change in binding of human HNF4 alpha to DNA. P41235. HNF4a-FITC DNA binding, fluorescence polarization, 1 h. activity change, % at 10 µM. 360,000 tested, 0.3% active; in the data active = activity change above about 30%, passing the limit was not always enough;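 also: controls were the assay level and a saturating level of protein; the project sought stronger binding though the title names inhibitors; some compounds called inactive have numbers as strong as hits; positive values seem to mean higher polarization but the record does not say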
Ecoli rRNA inh OD600: also measured in Ecoli rRNA inh; calls as there; OD600 change, %; measured here: OD600 growth;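 optical density of the mix in the first replicate; 0 = DMSO median and -100 = no signal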
Ecoli rRNA inh RFP: also measured in Ecoli rRNA inh; calls as there; RFP signal change, %; measured here: RFP humanized mutant strains;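 first replicate; 0 = DMSO median and -100 = no signal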
Active calls of the source: *; i = inactive; . = not tested or not shown. An excerpt; rates above refer to the full screens.

SMILES	FGF22 binding	ALR H2O2 inh	UCH37 DUB inh	Beta2AR agonist	Ecoli rRNA inh	Ecoli rRNA inh OD600	Ecoli rRNA inh RFP	E coli growth	HNF4A DNA FP
COc1cccc(OC)c1C(=O)OCC(=O)/C(C#N)=C(\C)N	i	0	-1.2	13	9	13	4.8	0.74	-0.7
CCc1ccc(NC(=O)C2CCN(S(=O)(=O)c3ccc4c(c3)NC(=O)CO4)CC2)cc1	i	-5	3.4	8	-1	-2	-0.8	0.66	5.2
CCN(Cc1ccccc1)S(=O)(=O)c1ccccc1Br	i	.	2.3	-14	-47	-74	-13	0.69	4.8
CCN1C(=O)[C@H]2[C@@H](c3ccc(-c4ccc(F)cc4)cc3)N[C@@](CC(C)C)(C(=O)OC)[C@H]2C1=O	i	-5	4.3	3	4	-11	3.0	.	-2.6
COc1ccccc1NC(=O)Nc1cnccn1	i	1	0.5	-3	3	4	0.1	0.71	0.5
Cc1c(NC(=O)c2ccccc2N(C)S(=O)(=O)c2ccccc2)c(=O)n(-c2ccccc2)n1C	.	-12	2.5	-3	.	.	.	0.67	-1.7
O=C(NNC(=O)C1CCCN(S(=O)(=O)c2ccc3ccccc3c2)C1)C1CC1 (stereo not drawn)	.	.	1.3	-2	-10	-9	-0.9	0.64	0.2
CC1=C(C(=O)N(C(C)C)C(C)C)CC(CC(=O)NC2CCCCC2)C(=O)N1Cc1ccc(C(C)(C)C)cc1 (stereo not drawn)	i	.	.	.	1	-4	-7.2	.	-3.7
Cc1ccc(-n2cnc(N)c2C(=O)c2cccc([N+](=O)[O-])c2)cc1	i	-1	6.8	5	12	13	-0.3	0.64	1.2
COc1ccccc1N(C)S(=O)(=O)c1ccc(C(=O)Nc2ccc(C)cc2C)cc1	i	.	5.8	4	-10	-28	-0.9	0.72	1.0
CCOc1ccc(Br)cc1/C=N/O	i	2	.	-1	3	3	-1.1	.	0.1
O=C(CNC(=O)c1ccco1)NCC(=O)OCc1ccccc1Br	.	-16	3.9	3	.	.	.	0.67	-0.5
CCOC(=O)c1oc2ccc(S(=O)(=O)N3CCOCC3)cc2c1C	i	-3	1.7	6	14	6	-4.3	0.7	-6.0
CC(NC(=O)c1ccccc1F)c1nnc(SCc2nc3ccccc3c(=O)[nH]2)n1C (stereo not drawn)	i	-1	1.5	3	7	3	0.8	0.71	0.4
CCCCNC(=O)C1c2ccccc2C(=O)N(c2ccc(OC)cc2)C1c1ccc(OC)cc1 (stereo not drawn)	.	-32	1.8	4	.	.	.	0.7	4.1
Cc1ccc(-c2nn3c(C)nnc3c3ccccc23)cc1S(=O)(=O)NC(C)c1ccccc1 (stereo not drawn)	.	-3	2.7	26	.	.	.	0.68	0.7
O=C(O)c1cccc(S(=O)(=O)Nc2cccc(S(=O)(=O)N3CCCCCC3)c2)c1	i	-7	5.6	11	13	3	-1.5	0.73	-1.9
O=C(O)CN1C(=O)/C(=C\c2cn(-c3ccccc3)nc2-c2ccccc2)SC1=S	.	26	.	-10	.	.	.	.	-2.5
COC(=O)c1ccc(Nc2c([N+](=O)[O-])ccc3nonc23)cc1	i	-1	4.0	-12	10	5	4.3	0.67	4.9
O=C(Nc1ncnc2c1C(c1ccccc1)c1c(ccc3ccccc13)O2)c1ccccc1 (stereo not drawn)	i	-2	3.9	-5	2	-11	-8.2	0.72	6.0
CC(=Cc1ccccc1)C=C1SC(=S)N(CCCC(=O)Nc2ccc(C(=O)O)cc2)C1=O	i	.	.	.	-23*	-14*	5.0*	0.69	6.2
COc1ccc2c(-c3ccccc3)cc(=S)[nH]c2c1	i	-3	3.5	1	5	-10	-0.9	0.71	2.9
Cc1ccc(N2CC(C(=O)NCc3ccccn3)CC2=O)cc1 (stereo not drawn)	.	-4	3.1	-3	.	.	.	0.64	4.0
CCN(CC(=O)Nc1c(F)cccc1F)C(=O)CSc1ccc(F)cc1	.	-6	3.1	-8	7	-1	-1.8	0.68	-0.6
COc1ccc(CNC(=O)C2CCC(CNS(=O)(=O)c3ccccc3)CC2)cc1 (stereo not drawn)	i	0	3.2	-3	1	6	-0.6	0.68	3.4
O=C(NNC(=S)Nc1ccc(C(=O)O)c(O)c1)c1ccncc1	.	.	13	-4	6	3	-1.6	0.72	1.1
COc1ccc(CCNC(=O)CC2COc3ccccc3O2)cc1OC (stereo not drawn)	.	-6	-1.8	4	.	.	.	0.68	-0.7
COc1ccc(CNC(=S)Nc2cc(C)cc(C)c2)cc1	.	28	0.6	13	.	.	.	0.71	1.4
COc1ccc(-c2cc3cc(OC)c(OC)cc3cn2)cc1OC	i	0	-9.9	-3	0	2	1.2	0.68	5.8
CN(Cc1ccccc1)C(=O)COC(=O)c1ccc[nH]c1=O	i	-1	-1.1	5	16	12	1.5	0.65	-2.3
COc1ccc(C2(c3ccc(OC)cc3)NC(=O)N(CC(=O)Nc3ccccc3C)C2=O)cc1	i	-11	0.8	-1	-1	-12	0.9	0.64	-1.2
O=C(NCc1csc(-c2cccs2)n1)Nc1ccc(F)cc1F	i	-11	-56	-2	15	12	1.4	0.62	-1.8
O=c1[nH]c(=O)n(C2CCCCCC2)c(O)c1C=NCc1ccc(F)cc1	.	-7	5.1	-8	.	.	.	0.76	-0.8
Cc1ccc(/C=C/C(=O)NCCc2ccccc2)o1	i	14	0.9	-4	0	-5	-2.5	0.69	-1.8
COc1cccc(NC(=O)CN(C)C(=O)c2ccc(COc3ccccc3)o2)c1	i	3	2.7	-18	7	12	-1.0	0.67	0.9
Cc1ccc(S(=O)(=O)N(C(=O)c2ccco2)c2cc3sc(=O)oc3c3ccccc23)cc1	.	-48	6.0	-1	.	.	.	0.69	-1.6
O=C(CN1CCCC1)Nc1nc(-c2ccc3c(c2)CCN3C(=O)c2ccccc2F)cs1	.	-6	0.2	9	.	.	.	0.65	2.4
O=C(NCc1ccccc1)C1=C[C@H](c2csc3ccccc23)C[C@H](OCc2ccc(CO)cc2)O1	i	.	-0.4	16	4	-13	-4.7	.	0.0
O=C(CSc1ncn[nH]1)Nc1c(Br)cc([N+](=O)[O-])cc1Br	.	-16	1.3	-7	.	.	.	0.7	-2.1
Cc1cc(C(=O)NCc2csc(-c3ccccc3)n2)no1	i	-3	1.5	-3	5	-2	-0.9	0.69	8.9

Quoted from the listing:
Cc1ccc(/C=C/C(=O)NCCc2ccccc2)o1 in Ecoli rRNA inh RFP = -2.5
O=C(NCc1ccccc1)C1=C[C@H](c2csc3ccccc23)C[C@H](OCc2ccc(CO)cc2)O1 in UCH37 DUB inh = -0.4

Carrying on.
SMILES	FGF22 binding	ALR H2O2 inh	UCH37 DUB inh	Beta2AR agonist	Ecoli rRNA inh	Ecoli rRNA inh OD600	Ecoli rRNA inh RFP	E coli growth	HNF4A DNA FP
O=C(NCc1ccccc1Cl)NC(=O)c1csc([N+](=O)[O-])c1	i	.	4.5	-3	13	3	1.5	0.63	3.4
Cc1c(Cl)cccc1NC(=S)NCc1ccco1	i	-2	5.5	-1	-8	-8	-0.7	0.68	-1.6
CN(c1ccccc1)S(=O)(=O)c1ccc(Cl)c(C(=O)NCc2ccccc2CN2CCCC2)c1	i	-5	1.3	-3	4	-10	-2.0	0.65	2.0
CCCc1cc(=O)n2[nH]c(-c3cc(OC)c(OC)c(OC)c3)nc2n1	.	7	1.6	-1	.	.	.	0.79	-0.9
O=C(NCCc1cnn(-c2ccccc2)c1)c1cc(COc2c(F)cccc2F)on1	i	-4	1.7	-8	-6	-1	-0.4	0.69	-0.5
N=c1c2c(-c3ccccc3)c(-c3ccccc3)oc2ncn1CCCN1CCOCC1	.	-8	-3.4	-2	.	.	.	0.71	-3.0
N=c1ccn(Cc2ccc(Cl)c(Cl)c2)cc1	.	1	6.3	-11	.	.	.	0.74	-3.4
Cc1ccc(S(=O)(=O)N2CCN(C(=O)CC(C)n3cncn3)CC2)cc1 (stereo not drawn)	i	0	0.9	3	6	4	-1.4	0.7	-0.4
Cc1cc(C)c(S(=O)(=O)N(C)CC(=O)N2CCCC2)c(C)c1	i	.	.	.	5	0	1.7	.	-0.6
N#Cc1ccc(COC(=O)c2ccc3c(c2)OCO3)cc1	i	-5	2.0	3	6	1	-5.1	0.64	0.1
COc1ccc(C2NC3=C(CCC3)C3(C#N)C4(N=C(N)C23C#N)OCCO4)cc1 (stereo not drawn)	.	-11	2.8	5	.	.	.	0.73	1.3
COc1cc(OC)cc(C(=O)NNC(=O)c2ccc(S(=O)(=O)N3CC(C)OC(C)C3)cc2)c1 (stereo not drawn)	i	2	1.3	-3	6	18	3.1	0.65	1.7
Cc1cc2c(cc1C)N(C(=O)CSc1nncn1C)C(C)(C)c1ssc(=S)c1-2	.	9	8.3	0	-43	-57	-3.3	0.71	7.3
CCN1C(=O)c2cccc3c(NS(=O)(=O)c4ccc(NC(C)=O)cc4)ccc1c23	.	1	2.0	-3	15	-22	-10	0.69	-5.3
COc1cc(C(=O)NCCC(=O)NC2CCC(C)CC2)cc(OC)c1OC (stereo not drawn)	i	-1	4.9	1	8	6	2.2	0.69	0.9
COCCOc1ccc(C(F)(F)F)cc1NC(=O)COC(=O)c1c(C)noc1C	.	-27	5.6	5	.	.	.	0.7	-1.1
CCn1c(O)c(N=NC(=O)c2cccs2)c2ccccc21	i	.	10	-1	5	12	-4.3	0.68	-1.4
CN(Cc1ccccc1)C(=O)C1CCN(Cc2ccc(F)cc2)CC1	.	-4	0.9	-8	.	.	.	0.7	2.7
COc1ccc(Nc2ccc([N+](=O)[O-])cn2)cc1	i	-12	4.3	-3	0	13	3.1	0.62	0.8
COc1cccc(/C=C2\CCc3ccccc3C2=O)c1	i	-11	2.3	-2	-20	-14	-5.4	0.66	-2.4
O=C(CSc1n[nH]c(=O)n1CCc1ccccc1)NC1CCCC1	i	.	.	.	6	8	2.3	.	1.0
c1csc(CNc2ccn3nc(-c4ccc(OCCN5CCOCC5)cc4)cc3n2)c1	i	.	.	.	-21	-46	-3.1	.	2.5

Entries shown so far that have an NH in an aromatic ring, in the order listed:
SMILES	FGF22 binding	ALR H2O2 inh	UCH37 DUB inh	Beta2AR agonist	Ecoli rRNA inh	Ecoli rRNA inh OD600	Ecoli rRNA inh RFP	E coli growth	HNF4A DNA FP
CC(NC(=O)c1ccccc1F)c1nnc(SCc2nc3ccccc3c(=O)[nH]2)n1C (stereo not drawn)	i	-1	1.5	3	7	3	0.8	0.71	0.4
COc1ccc2c(-c3ccccc3)cc(=S)[nH]c2c1	i	-3	3.5	1	5	-10	-0.9	0.71	2.9
CN(Cc1ccccc1)C(=O)COC(=O)c1ccc[nH]c1=O	i	-1	-1.1	5	16	12	1.5	0.65	-2.3
O=c1[nH]c(=O)n(C2CCCCCC2)c(O)c1C=NCc1ccc(F)cc1	.	-7	5.1	-8	.	.	.	0.76	-0.8
O=C(CSc1ncn[nH]1)Nc1c(Br)cc([N+](=O)[O-])cc1Br	.	-16	1.3	-7	.	.	.	0.7	-2.1
CCCc1cc(=O)n2[nH]c(-c3cc(OC)c(OC)c(OC)c3)nc2n1	.	7	1.6	-1	.	.	.	0.79	-0.9
O=C(CSc1n[nH]c(=O)n1CCc1ccccc1)NC1CCCC1	i	.	.	.	6	8	2.3	.	1.0
